Arbovirus inh – arbovirus infection inhibition; arbovirus infection cell-based antiviral screen; inhibition, % at 10 µM; 200,000 compounds, 0.37% hits; AID 1251;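 active = inhibition from about 30%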;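 also: bluetongue infection of BSR cells; cell survival read as ATP light after 72 h; 0% = infected wells without compound and 100% = uninfected wells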
RecA splice inh – Mtb RecA intein splicing inhibition | inhibition, %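 (about 9 µM by stock and volumes)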 | cell-free RecA intein splicing, fluorescence | 290,000 compounds, 0.75% hits; in the data active = inhibition above about 30%; inconclusive = no clear call, values can overlap the other calls;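 also: 0% = vehicle wells and 100% = reference inhibitor control wells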
Target sequence (P9WHJ3 whole entry, looked up, canonical isoform): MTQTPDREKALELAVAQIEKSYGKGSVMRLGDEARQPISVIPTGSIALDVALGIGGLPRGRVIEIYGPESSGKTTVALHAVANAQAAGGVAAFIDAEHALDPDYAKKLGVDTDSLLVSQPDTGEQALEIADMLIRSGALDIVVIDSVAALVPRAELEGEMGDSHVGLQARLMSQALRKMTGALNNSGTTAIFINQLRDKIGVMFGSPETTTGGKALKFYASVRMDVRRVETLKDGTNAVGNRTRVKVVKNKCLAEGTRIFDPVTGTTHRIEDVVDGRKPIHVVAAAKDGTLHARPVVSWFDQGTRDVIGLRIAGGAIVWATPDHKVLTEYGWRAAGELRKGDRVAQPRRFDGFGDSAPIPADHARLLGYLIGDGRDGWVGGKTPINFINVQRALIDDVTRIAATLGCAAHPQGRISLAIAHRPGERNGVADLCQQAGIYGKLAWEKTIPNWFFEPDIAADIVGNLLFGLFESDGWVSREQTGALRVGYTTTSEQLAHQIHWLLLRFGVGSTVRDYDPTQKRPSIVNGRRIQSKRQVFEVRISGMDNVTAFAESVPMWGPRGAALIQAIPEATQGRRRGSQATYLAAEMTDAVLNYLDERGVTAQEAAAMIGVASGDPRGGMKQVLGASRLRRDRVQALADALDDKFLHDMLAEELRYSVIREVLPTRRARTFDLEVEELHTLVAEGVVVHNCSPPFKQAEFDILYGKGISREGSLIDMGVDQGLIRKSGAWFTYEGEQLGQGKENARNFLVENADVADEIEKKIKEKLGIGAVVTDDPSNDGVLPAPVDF
YopH PTP inh – blocks Yersinia enterocolitica YopH tyrosine phosphatase; fluorescence Ex485/Em525; inhibition, %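 (about 10 µM by stock and volumes)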; 140,000 compounds, 0.16% hits; AID 898;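 active = inhibition of 50% or more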;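 also: controls were vehicle for no effect and minimum signal wells for full effect; inactives centre near -20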
Mtb bLac sens – beta-lactam sensitization of Mtb H37Rv | inhibition, % at 25 µM | AID 434955 | 330,000 compounds, 0.27% hits | M. tuberculosis H37Rv growth with meropenem, percent inhibition; hits of this screen are not shown here;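 active = about 74% or more and at least 40 points above the plate without the antibiotic, then above 30% in a dose series; inconclusive = first-round hits that could not be retested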;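 also: growth measured after seven days incubation then overnight dye step; 0% = bacteria only wells and 100% = bacteria with antibiotic; twin plates without the antibiotic show which effects depend on it; some results filed as inactive read as strong as hits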
Mtb H37Rv – M. tuberculosis H37Rv growth inhibitors, H37Rv strain (AID 1626) | M. tuberculosis H37Rv growth inhibition; higher % means a stronger effect | 220,000 compounds, 0.95% hits | one-dose inhibition, % at 10 µM; IC50 in µM for titrated hits;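 active = confirmed in a dose series; inconclusive = inhibition above 80% but not taken into the dose series; inactive = below 80% or under 30% at every dose of the series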;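 also: bacteria incubated seven days before Alamar blue readout; 0% = bacteria only wells and 100% = bacteria with antibiotic wells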
Arbovirus inh repeat – second read-out of Arbovirus inh, no call of its own (marks repeat the call); inhibition, %; measured here: 10K subset replicate screen; many hits read low in the repeat;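 first of two repeat runs on a subset; 0% = infected and 100% = uninfected wells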
* = called active by the depositor; u = inconclusive; x = no result given. The list is partial; the hit share may differ from the screen's.

The opening three entries as a preview:
SMILES | Arbovirus inh | RecA splice inh | YopH PTP inh | Mtb bLac sens | Mtb H37Rv | others
COc1ccccc1-c1nc2ccc(Cl)cc2c(=O)n1O | x | -3.6 | x | 0 | x
O=C(Cc1c[nH]c2ccccc12)NCc1ccco1 | -4 | 1.7 | x | -7 | 6%
CCOC(=O)c1cc(-c2ccc(OC)cc2)nn1-c1ccccc1C(=O)O | x | -7.0 | x | -2 | -12%

The list itself, from the first entry:
SMILES | Arbovirus inh | RecA splice inh | YopH PTP inh | Mtb bLac sens | Mtb H37Rv | others
COc1ccccc1-c1nc2ccc(Cl)cc2c(=O)n1O | x | -3.6 | x | 0 | x
O=C(Cc1c[nH]c2ccccc12)NCc1ccco1 | -4 | 1.7 | x | -7 | 6%
CCOC(=O)c1cc(-c2ccc(OC)cc2)nn1-c1ccccc1C(=O)O | x | -7.0 | x | -2 | -12%
COc1cccc(C(=O)Oc2c(CN3CCOCC3)cc(Cl)c3cccnc23)c1 | -11 | 2.7 | -32 | 98 | -4%
Cn1c(=O)[nH]c(=O)c2c1nc(NCCCn1ccnc1)n2CCOc1ccccc1 | 24 | -1.4 | -24 | -8 | -4%
Cc1cc(NC(=O)c2cccc(Br)c2)n[nH]1 | x | -0.2 | x | -5 | x
C/C(=N\NC(=O)c1c[nH]c2ccccc12)c1ccccn1 | -23 | -6.4 | x | 98 | u
COc1c(C)cc(C(=O)C2CCCN(Cc3ccccn3)C2)cc1C (configuration not stated) | 11 | 0.4 | x | 94 | 52%
Cc1sc2ncn(CC(=O)N3CCN(c4ccccc4F)CC3)c(=O)c2c1S(=O)(=O)N1CCOCC1 | x | 4.0 | x | 5 | x
CCN(CC(=O)Nc1c(C(=O)OC)[nH]c2ccc(C)cc12)c1ccc2c(c1)OCO2 | -15 | -2.4 | -40 | 74 | 0%
COc1ccc(C)cc1NC(=O)c1cc2ccccc2o1 | 3 | 3.8 | -25 | 3 | 11%
Cc1cc(OC(=O)c2ccc(C(F)(F)F)cc2)c([N+](=O)[O-])c(=O)[nH]1 | x | -3.3 | x | -2 | x
CC1CCCC(C)N1c1ccc(S(=O)(=O)N2CCOCC2)cc1Cl (configuration not stated) | x | 10 | x | -2 | x
Cc1nn(CC(O)Cn2cnc3c2c(=O)n(C)c(=O)n3C)c(C)c1Br (configuration not stated) | -2 | -3.8 | -43 | -9 | 4%
CC1=CC(C)(C)N2C(=O)C3(SCC(=O)N3c3ccc(O)cc3)c3cc(C)cc1c32 (configuration not stated) | -24 | 25 | -47 | 9 | -9%
COc1cc(OC)cc(C(=O)Nc2ncc3c(n2)CC(C)CC3=O)c1 (configuration not stated) | x | -0.3 | -41 | -7 | 1%
CCOC(=O)C1CCN(CC(=O)NC(=O)NC2CCCCC2)CC1 | 4 | -0.6 | x | -3 | 4%
CC1(C)CC(NNCCC#N)=CC(=[N+]2CCCC2)C1 | 0 | -0.2 | x | -2 | 3%
Cc1cccc(C)c1NC(=O)C1(N(Cc2ccco2)C(=O)c2ccccn2)CCCC1 | 1 | -0.2 | 28 | -4 | 0%
O=C(COC(=O)CNC(=O)C1CCCCC1)Nc1ccc(Cl)cn1 | 9 | 1.1 | -32 | -2 | -1%
CCOC(=O)N1CCN(C(=O)C2CCN(C(=O)c3cc(OC)cc(OC)c3)CC2)CC1 | 4 | -1.5 | -1 | -1 | 9%
O=C(/C=C/c1ccc(O)c(O)c1)O[C@H](Cc1ccc(O)c(O)c1)C(=O)O | x | -3.6 | x | x | -7%
CCOC(=O)N1CCC(NC(=O)CCS(=O)(=O)c2ccc3c(c2)CCN3C(C)=O)CC1 | 15 | -0.8 | -39 | -2 | x
Cc1c(C(=O)N(C)C2CCCCC2)sc2ncnc(N3CCN(c4ccccc4)CC3)c12 | x | 0.8 | x | 6 | x
CCCCn1c(-c2cccnc2)n[nH]c1=S | -2 | -3.7 | -16 | 0 | -4%
CC1=C(C(=O)N(C)C)C(c2ccc(C)s2)NC(=S)N1 (configuration not stated) | 5 | -1.8 | x | 1 | -6%
CCOC(=O)C(=O)Nc1ccccc1C(=O)NC(C)C | 11 | -0.9 | 0 | -10 | -5%
COC(=O)C1CCN(C(=O)N2CCOCC2)CC1 | 8 | 0.5 | -50 | 4 | -13%
O=C(CSc1nnnn1C1CCCC1)Nc1ccc2c(c1)OCCO2 | 0 | 1.8 | -25 | 7 | -2%
Cc1ccc2c(c1)C1OCCC1C1N2C(=O)C2C(C(=O)O)C3C=CC21O3 (configuration not stated) | 4 | -0.4 | -27 | -3 | 1%
O=C(COC(=O)c1ccccc1Nc1ccccc1)NCc1ccccc1Cl | 1 | -45 | -16 | 3 | -1%
Cc1ccc(N(CC(N)=O)C2SC(=O)N(Cc3cccc(C(=O)O)c3)C2=O)cc1 (configuration not stated) | 5 | -5.5 | -18 | -10 | 2%
Cc1cccc(N2C(=O)N3[C@H](c4ccc(Br)cc4)[C@@H]4C(=O)N(C(C)(C)C)C(=O)[C@@H]4[C@]3(Cc3ccc(Cl)cc3)C2=O)c1 | x | 3.6 | x | -3 | x
Cn1c(=O)c2c(ncn2CC(=O)OCC(=O)Nc2sccc2C(N)=O)n(C)c1=O | x | -0.5 | x | -1 | x
CCOC(=O)C1CCN(c2c(N(C)Cc3ccco3)c(=O)c2=O)CC1 | 8 | -0.2 | -10 | 0 | 3%
CC(=O)N1c2ccc(S(=O)(=O)NCC3CCC(C(=O)N(C)Cc4ccccc4)CC3)cc2CC1C (configuration not stated) | x | -3.0 | x | 4 | x

Four compounds picked at random from the list so far, as already listed:
SMILES | Arbovirus inh | RecA splice inh | YopH PTP inh | Mtb bLac sens | Mtb H37Rv | others
Cc1cccc(N2C(=O)N3[C@H](c4ccc(Br)cc4)[C@@H]4C(=O)N(C(C)(C)C)C(=O)[C@@H]4[C@]3(Cc3ccc(Cl)cc3)C2=O)c1 | x | 3.6 | x | -3 | x
O=C(COC(=O)c1ccccc1Nc1ccccc1)NCc1ccccc1Cl | 1 | -45 | -16 | 3 | -1%
COC(=O)C1CCN(C(=O)N2CCOCC2)CC1 | 8 | 0.5 | -50 | 4 | -13%
CCOC(=O)C1CCN(c2c(N(C)Cc3ccco3)c(=O)c2=O)CC1 | 8 | -0.2 | -10 | 0 | 3%

(more compounds)
SMILES | Arbovirus inh | RecA splice inh | YopH PTP inh | Mtb bLac sens | Mtb H37Rv | others
Cc1cc(C)n2cc(CSc3ccccn3)nc2n1 | 18 | -1.9 | x | 37 | 12%
Cc1ccc(C)c(CSc2nnc(-c3cccnc3)o2)c1 | -18 | 0.9 | -24 | 49 | -2%
COC(=O)c1cc(OC)c(OC)cc1NC(=O)c1ccccc1C | 0 | 4.7 | x | 18 | 5%
C#CCNC(=O)C1=C[C@@H](c2ccc(C(F)(F)F)cc2)[C@H](CCCO)[C@@H](OCC)O1 | 6 | 2.4 | x | -8 | 7%
COc1ccc(Cl)cc1NC(=O)c1ccco1 | 0 | 3.2 | -19 | -1 | 11%
Nc1c(C(=O)OCC(=O)NCc2ccccc2)[nH]c(=O)[nH]c1=O | x | -6.4 | x | -7 | -4%
CC(=O)c1ccccc1NS(C)(=O)=O | -1 | -1.9 | x | 8 | 1%
O=C(c1ccc(S(=O)(=O)N2CCCCC2)cc1)N1CCN(CCN2C(=O)c3cccc4cccc(c34)C2=O)CC1 | -3 | -1.6 | x | 0 | 1%
O=C(O)/C=C/c1cccc2c1OCCO2 | x | -1.9 | x | -2 | 1%
O=C(O)c1ccc(COc2ccc(/C=N/NC(=O)c3cccs3)cc2)cc1 | 3 | -1.4 | -25 | 41 | x
CCN(CC)CCNC(=O)Cn1ncc2ccccc2c1=O | x | 7.4 | x | -9 | -10%
CN(C)c1ccc(CN(C(=O)COc2ccc(F)cc2)C2CCS(=O)(=O)C2)cc1 (configuration not stated) | 4 | -4.4 | -14 | -5 | -17%
CCc1ccccc1NC(=O)CN(C)S(=O)(=O)c1ccc(-c2ccc(=O)[nH]n2)s1 | x | -0.5 | x | 5 | x
CC(NC(=O)c1ccccc1O)c1ccccc1 (configuration not stated) | 9 | 3.0 | -10 | 15 | 7% | Arbovirus inh repeat=1
O=C(COC(=O)CCc1c[nH]c2ccccc12)NCc1ccc(Cl)cc1 | -10 | 2.0 | -24 | 8 | 16%
Cc1ccc(C(=O)N2CCC(C(N)=O)CC2)cc1C | 0 | -2.3 | -3 | -1 | 2%
COc1cccc(C(=O)N/N=C(/CCC(=O)O)c2ccccc2)c1 | -6 | -2.3 | -27 | 1 | -4%
O=[N+]([O-])c1ccc(NCCCN2CCOCC2)c([N+](=O)[O-])c1 | 2 | -5.1 | x | -1 | -10%
CC1(c2nnc(-c3cccc(Cl)c3)o2)CC(c2ccccc2Br)=NO1 (configuration not stated) | x | 8.6 | x | -5 | x
NNC(=O)c1sc2nc(N3CCOCC3)c3c(c2c1N)CCCC3 | x | 2.3 | x | -8 | 8%
FC(F)(F)c1ccc2c(c1)nnn2C1CCN(Cc2nnnn2Cc2ccccc2)CC1 | 0 | 3.0 | -26 | 2 | 0%
Cc1cccc(C)c1OCC(=O)Nc1cc(Cl)ccc1-n1cncn1 | x | -2.6 | x | -2 | x
Cc1cc(-c2nnc(CCC(=O)NC(C)c3ccc(F)cc3)o2)no1 (configuration not stated) | 2 | -1.2 | x | 3 | 4%
Cc1ccc(C(=O)NNC(=S)NCC2CCCO2)cc1[N+](=O)[O-] (configuration not stated) | x | -0.9 | x | -8 | x
CN1C(=O)[C@@H]2C[C@@]3([C@@]45C[C@H]6C(=O)N(C)[C@@H](Cc7ccccc7)C(=O)N6[C@@H]4Nc4ccccc45)c4ccccc4N[C@H]3N2C(=O)[C@@H]1Cc1ccccc1 | x | 0.1 | x | -4 | x
O=C(OCC(=O)N1CCCC1=O)c1cccc(S(=O)(=O)N2CCOCC2)c1 | x | -1.8 | x | -4 | x
CS(=O)(=O)N(CC(=O)N1CCN(c2cccc(Cl)c2)CC1)C1CCCCC1 | -3 | -3.5 | -14 | -11 | 7%
COc1ccc(N(CC(=O)Nc2ccccc2C(=O)NCCc2ccccc2)S(C)(=O)=O)cc1OC | -1 | 3.3 | -18 | -4 | -4%
CSc1nc(N(C)C)c2ccccc2n1 | 1 | -4.6 | x | 15 | 43µM*
COc1cccc(C2CCCN2Cc2nc(CC3CC3)no2)c1 (configuration not stated) | 2 | -0.1 | x | -2 | -2%
COc1ccc(C(NC(=O)/C=C/c2ccco2)c2ccc(OC)c(OC)c2)cc1 (configuration not stated) | -1 | 1.0 | -14 | -2 | -3%
O=C(NCc1cccnc1)c1nc(-c2ccc(C(F)(F)F)cc2)no1 | 16 | 1.5 | x | -2 | 5%
COC(=O)c1c(C(=O)OC)c(-c2cccc(C)c2)n2c1CS(=O)C2 (configuration not stated) | -4 | -1.3 | x | -5 | 5%
CSc1nnc(-c2cccn(Cc3ccccc3)c2=O)o1 | 2 | 0.9 | x | 0 | 5%
CCOC(=O)c1c(-c2ccc(C)c(C)c2)csc1NC(=O)C1CC=CCC1C(=O)O (configuration not stated) | 41* | 7.0 | -12 | -4 | x
COc1ccc(CN2CCN(Cc3cc4ccccc4o3)CC2CCO)cc1C (configuration not stated) | x | -0.7 | x | 0 | x
COc1ccc(C(=O)NC2CC2)cc1OC1CCN(Cc2ccc(F)cc2Cl)CC1 | x | 2.0 | x | -3 | x
CC(C)(C)c1ccc(S(=O)(=O)Nc2ccccn2)cc1 | 14 | 2.2 | x | -1 | 0%
NC(=O)COC(=O)/C=C/c1ccccc1[N+](=O)[O-] | 0 | -0.4 | x | -1 | 5%
COc1ccc(-c2cc(C(F)(F)F)nc(SCC(=O)NCCCN3CCOCC3)n2)cc1 | -4 | -4.8 | x | 4 | -9%
C=CCN1C(=O)C2(/C(=C(\O)c3ccc4c(c3)OCCO4)C(=O)C(=O)N2CCCOC)c2ccccc21 (configuration not stated) | 4 | -0.4 | -16 | 22 | -16%
CCOC(=O)c1c(C)[nH]c(C)c1C(=O)C(Cc1ccccc1)N(C)C (configuration not stated) | x | 1.5 | x | -4 | x
COc1cc(OC)c(CN2CCC(CO)(CCOc3ccccc3)CC2)c(OC)c1 | -24 | 2.2 | x | 51 | 3%
Cc1ccccc1NC(=O)N1CCc2ccccc2C1 | 0 | -1.2 | x | -6 | 0%
Cc1cc(C)nc(N/C(=N\S(=O)(=O)Cc2ccccc2)Nc2ccc(F)c(Cl)c2)n1 | 3 | 0.4 | -17 | 1 | 4%
N/C(=N\OC(=O)Cc1ccccc1[N+](=O)[O-])c1ccncc1 | -1 | -0.8 | -20 | -4 | 1%
COc1ccc(-c2nc(-c3ccncc3)no2)cc1 | x | 1.0 | x | 11 | x
O=C(CCCCCNC(=O)c1ccccc1)C[N+](=O)[O-] | 6 | 3.0 | x | -4 | 5%
CCCCc1ccc(NC(=O)COc2ccc(C(=O)Nc3ccccc3OC)cc2)cc1 | 6 | -6.1 | -14 | 88 | u

Assay outcomes as filed in PubChem.
